Compound activity from PubChem.
Beta2AR agonist = activates human beta-2 adrenergic receptor causing internalization; P07550; Am2.2-beta2AR cells, FAP receptor internalization, flow cytometry; reference of the scale not given here; response, % (test concentration not listed); hit rate 0.43% among 340,000; AID 504454;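 active = response above a set limit, near 3 SD of response in nonfluorescent compounds, cut at about 42% in these data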;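 note: stock transfer was 100 nL into about 11 µL; a reference agonist was the positive control; negative values mostly stem from fluorescent compounds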
HNF4A DNA FP = change in binding of human HNF4 alpha to DNA. HNF4a-FITC DNA binding, fluorescence polarization, 1 h. hit rate 0.3% among 360,000. AID 1224865. activity change, % at 10 µM. P41235; in the data active = activity change above about 30%, passing the limit was not always enough;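 note: controls were the assay level and a saturating level of protein; the project sought stronger binding though the title names inhibitors; some compounds called inactive have numbers as strong as hits; positive values seem to mean higher polarization but the record does not say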
E coli growth = E. coli growth inhibition; Escherichia coli growth, OD600, 23 h; stronger effect = lower value; OD600 absorbance (concentration not given with the values); hit rate 0.21% among 330,000; AID 1053175;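 active = OD600 absorbance below the run mean of sample wells minus 3.6 SD, in any replicate, cut at about 0.56 in these data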;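 note: stock transfer was 300 nL into about 60 µL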
Vif A3G = HIV-1 Vif–A3G interaction blockers – biochemical, TR-FRET, GST-Vif 1-94, biotin-A3G peptide, dose response retest, primary screen (AID 1117319) | TR-FRET GST-Vif / biotin-A3G peptide binding; higher % means a stronger effect; test concentration not given here; strong numbers were not always called active | inhibition, %, or IC50 in µM where a hit was titrated | hit rate 0.57% among 260,000;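 active = above the screen mean plus three standard deviations and confirmed in dose response; inconclusive = results disagree or hit not tested in dose response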;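 note: Vif residues 1-94 fused to GST binding biotinylated APOBEC3G peptide 110-148; 0% = full assay without inhibitor and 100% = GST in place of GST-Vif; retest series ran down from 100 µM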
UCH37 DUB inh = inhibitors of human deubiquitinating enzyme UCH37 | purified proteasome/UCH37, Ub-AMC cleavage fluorescence | inhibition, % (concentration not given with the values) | hit rate 0.33% among 330,000 | AID 588478;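 active = mean of two replicates above 20%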;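 note: 0% = compound-free wells with enzyme and 100% = wells lacking proteasome; stock transfer was 100 nL into about 20 µL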
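Material: Human UCH37 enzyme supplied as purified proteasome complex | Schedule: 30 min compound-proteasome preincubation then 25 min substrate reaction, room temperature | Detection: AMC fluorescence from Ub-AMC cleavage, excitation 355 nm, emission 460 nm | Benchmarks: Wells without proteasome as full block, compound-free enzyme plus substrate as uninhibited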
LANA-H2A inh = blocks KSHV LANA binding to histone H2A/H2B; Q9QR71; cell-free LANA-H2A/H2B peptide, fluorescence polarization; inhibition, % (concentration not given with the values); hit rate 0.6% among 320,000; AID 2629; in the data active = inhibition mostly above about 10%, no sharp cut-off; inactive = mostly below about 6.7%;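 note: stock transfer was 7.5 nL into about 10 µL; 0% = median of vehicle wells and 100% = median of positive control wells; one replicate is shown; the record names a cut of 25% in any replicate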
Target sequence (Q9QR71 whole entry, looked up): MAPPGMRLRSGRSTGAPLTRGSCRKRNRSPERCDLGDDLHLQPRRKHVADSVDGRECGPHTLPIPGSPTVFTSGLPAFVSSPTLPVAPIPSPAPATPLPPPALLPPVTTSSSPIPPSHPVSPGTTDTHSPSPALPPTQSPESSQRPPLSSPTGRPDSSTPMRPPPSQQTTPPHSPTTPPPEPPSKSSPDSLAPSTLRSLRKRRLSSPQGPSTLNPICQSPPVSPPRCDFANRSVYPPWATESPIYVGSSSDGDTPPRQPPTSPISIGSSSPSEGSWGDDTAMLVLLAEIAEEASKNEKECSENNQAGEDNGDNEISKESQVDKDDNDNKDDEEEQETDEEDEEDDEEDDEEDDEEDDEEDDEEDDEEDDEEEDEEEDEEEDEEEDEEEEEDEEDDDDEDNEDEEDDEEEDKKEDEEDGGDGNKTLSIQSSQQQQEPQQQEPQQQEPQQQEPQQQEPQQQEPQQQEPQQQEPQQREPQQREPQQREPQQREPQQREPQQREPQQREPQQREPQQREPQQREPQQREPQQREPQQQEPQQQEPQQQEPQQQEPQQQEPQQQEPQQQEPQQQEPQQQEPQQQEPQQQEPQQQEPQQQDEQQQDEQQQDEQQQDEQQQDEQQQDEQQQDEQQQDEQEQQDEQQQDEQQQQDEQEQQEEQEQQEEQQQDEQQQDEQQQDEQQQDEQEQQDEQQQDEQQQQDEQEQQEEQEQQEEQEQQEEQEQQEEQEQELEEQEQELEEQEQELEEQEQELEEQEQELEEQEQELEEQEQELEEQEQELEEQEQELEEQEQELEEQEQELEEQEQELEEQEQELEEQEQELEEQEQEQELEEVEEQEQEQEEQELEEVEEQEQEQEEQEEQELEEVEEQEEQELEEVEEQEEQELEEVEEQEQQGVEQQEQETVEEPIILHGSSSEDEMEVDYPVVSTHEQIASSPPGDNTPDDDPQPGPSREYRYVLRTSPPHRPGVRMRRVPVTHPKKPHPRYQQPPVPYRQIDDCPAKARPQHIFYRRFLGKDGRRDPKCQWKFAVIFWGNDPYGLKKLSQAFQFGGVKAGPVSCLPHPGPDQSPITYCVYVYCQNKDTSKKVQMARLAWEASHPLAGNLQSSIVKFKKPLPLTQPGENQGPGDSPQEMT
Bfl-1 A1 inh = inhibitors of the anti-apoptotic protein A1, read as caspase activation | MEF A1-2A-BIM cells, Caspase-Glo 3/7 luminescence, 3 h; percent of clofoctol response, vehicle zero | caspase activation, % (no concentration beside the values) | hit rate 0.066% among 330,000;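 active = over half of replicate activation scores above 10%, or exactly half above 10 with the replicate mean above 10; inconclusive = replicate mean below 10 yet half the replicates above 10; inactive = over half of replicates below 10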;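 note: wells of about 30 µL received 50 nL stock; many hits fall short of the cut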
An asterisk follows results filed as active; ? = inconclusive; nt = not tested or not shown. Hits appear at their usual frequency; any-hit rate near 2.1%.

SMILES | Beta2AR agonist | HNF4A DNA FP | E coli growth | Vif A3G | UCH37 DUB inh | LANA-H2A inh | Bfl-1 A1 inh
CCCCCC(=O)N[C@@H](c1ccccc1)[C@@H](O)C(=O)O[C@H]1C[C@@]2(O)[C@@H](OC(=O)c3ccccc3)C3[C@](C)(C(=O)[C@H](OC(C)=O)C(=C1C)C2(C)C)[C@@H](O)C[C@H]1OC[C@@]31OC(C)=O (stereo partly specified) | -20 | 3.7 | 0.72 | nt | 3.0 | 0.0 | 0.7
CCOc1ncccc1C(=O)NCc1ccc(OC)c(OC)c1 | 0 | 3.6 | 0.73 | -9% | 5.7 | 0.2 | 0.3
Fc1ccc2nc(C(F)(F)F)cc(N3CCOCC3)c2c1 | -8 | 5.0 | 0.67 | -5% | 0.5 | 0.8 | -0.3
O=C(CCNC(=O)c1ccccc1Cl)NCCc1ccc(Cl)cc1 | -1 | -2.6 | 0.65 | -2% | 4.7 | 1.1 | 1.1
O=C(O)c1cccc(N2C(=O)C3CC=CCC3C2=O)c1 (stereo unspecified) | -2 | -2.9 | 0.69 | -1% | 1.3 | 2.0 | -0.4
CC1(C)CC(=O)C2=C(C1)Nc1ccccc1NC2c1ccc(F)cc1 (stereo unspecified) | -2 | 1.6 | nt | 4% | nt | -3.1 | -0.4
Oc1c(CNc2ccccc2)cc(COCc2ccccc2)c2cccnc12 | 4 | -1.1 | 0.67 | nt | -0.9 | nt | nt
CCC(c1nnc(SCC(=O)NCC2CCCO2)n1Cc1ccccc1)N(C)C (stereo unspecified) | -1 | 0.7 | 0.71 | nt | 3.3 | 4.1 | -0.2
CCNC(=S)NNC(=O)Cn1nc(C)cc1C | 3 | -1.7 | 0.72 | 3% | 3.7 | -9.5 | 0.0
Cc1ccc2c(c1)C(c1ccc(F)cc1)N(C(=O)c1ccccc1Br)CC(=O)N2 (stereo unspecified) | -1 | 2.9 | 0.67 | -1% | 4.6 | 1.3 | 1.1
CCN(CC)c1ccc(C(=O)c2ccccc2C(=O)O)c(O)c1 | 4 | -2.4 | 0.71 | 4% | 20* | 4.0 | 1.7
CCN(CC)C(=O)COc1ccc(Br)cc1Cl | -5 | -1.1 | 0.72 | 0% | 2.9 | 1.8 | -0.6
COc1ccc(OC)c(CN2CCCCCC2)c1 | -1 | 2.3 | 0.68 | nt | -1.0 | -1.6 | 0.6
CCOC(=O)C(NC(=O)NCc1ccccc1OC)(OCC)C(F)(F)F (stereo unspecified) | 0 | -0.1 | 0.69 | -3% | 4.2 | -2.6 | 0.6
CCn1c(=N)n(CCO)c2ccccc21 | 0 | -2.4 | 0.69 | 8% | 1.9 | -0.1 | 1.5

Marked active in UCH37 DUB inh, of those listed so far:
compound	Beta2AR agonist	HNF4A DNA FP	Vif A3G	UCH37 DUB inh	LANA-H2A inh
CCN(CC)c1ccc(C(=O)c2ccccc2C(=O)O)c(O)c1	4	-2.4	4%	20*	4.0

Going on with the list:
SMILES | Beta2AR agonist | HNF4A DNA FP | E coli growth | Vif A3G | UCH37 DUB inh | LANA-H2A inh | Bfl-1 A1 inh
CC(C)CC(=O)NC(NC(=S)Nc1sc2c(c1C#N)CCCC2)C(Cl)(Cl)Cl (stereo unspecified) | 0 | -2.5 | 0.66 | 5% | 4.2 | -1.1 | 0.2
CCS(=O)(=O)c1ccc(O)c(NC(=O)CC2(CC(=O)O)CCCC2)c1 | 6 | -4.1 | 0.71 | 0% | -0.7 | 2.7 | 0.1
Cc1cc(Cl)ccc1OCCCC(=O)OCC(=O)c1c(N)n(C)c(=O)n(C)c1=O | 1 | -1.2 | 0.69 | 2% | 2.6 | -4.3 | -0.1
CC(=O)Nc1ccc(C(=O)OCC(=O)Nc2ccccc2F)cc1 | 2 | 2.4 | 0.73 | -8% | -1.9 | -0.4 | -0.1
COc1ccc(CCC(=O)Nc2ccc(S(=O)(=O)N3CCCC3)cc2)cc1OC | -2 | -0.1 | 0.69 | -7% | 0.6 | -1.1 | 0.0
CCOC(=O)c1c(C)[nH]c(C2=NNC(=Nc3ccccc3OC)SC2)c1C | 6 | 7.3 | 0.7 | nt | 4.9 | -2.7 | 1.0
CCCc1ccc2oc(C(=O)NCCCN3CCOCC3)c(C)c2c1 | 3 | 2.4 | 0.7 | -3% | 5.9 | 0.5 | -0.5
O=C(Cn1ccc(C(F)(F)F)n1)Nc1cccc(S(=O)(=O)N2CCCCC2)c1 | 6 | 0.2 | 0.65 | -7% | 2.0 | -2.3 | 0.7
COC(=O)c1cn(CC(=O)NCc2cccs2)c2ccccc12 | 0 | 0.8 | 0.74 | -11% | 2.2 | -0.2 | 0.6
CC1(C)O[C@@H]2[C@H](O1)[C@@H](CO)O[C@H]2n1cnc2c(N)ncnc21 | -6 | 2.4 | nt | nt | 3.7 | -3.5 | 0.2
Cc1ccc(Cn2c(SCC(=O)N3CC(=O)Nc4ccccc43)nc3ccccc3c2=O)cc1 | -6 | 0.4 | 0.72 | nt | 1.3 | -3.9 | 0.6
O=c1[nH]cccc1-c1nc2ccccc2n1Cc1cccc(F)c1 | 7 | 2.4 | 0.67 | -1% | -249 | 1.8 | -0.6
Nc1c(Cl)ncnc1N/N=C/c1ccc2ccccc2n1 | 13 | -3.2 | nt | ? | nt | 6.7 | -3.9
N#CC1=C(Nc2ccccc2)SC=C(c2ccc(Br)cc2)N=C1N1CCOCC1 | -5 | -0.3 | 0.73 | 97µM* | 10 | -6.7 | -0.4
O=C(Nn1c(-c2ccc(Br)cc2)nc2ccccc2c1=O)c1ccc([N+](=O)[O-])cc1 | 30 | 3.5 | 0.71 | nt | 2.0 | -0.9 | 1.5
CCOC(=O)c1c(NC(=O)CN2CCOCC2)sc2c1CCCC2 | -8 | 5.8 | 0.67 | 6% | -0.3 | -0.8 | -1.1
CC(C)CCN1CC(=O)N2Cc3[nH]c4ccccc4c3C[C@H]2C1=O | 3 | -2.3 | 0.67 | 2% | 2.1 | 6.8 | 1.1
O=c1c2c3nc4ccccc4nc3n(-c3ccc4c(c3)OCCO4)c2ncn1C1CCCC1 | 53* | 16 | 0.72 | nt | -11 | -0.5 | -0.7
Cc1ccc(S(=O)(=O)N2CCOCC2)cc1N/N=C(\C#N)c1nc2ccccc2[nH]1 | 1 | -0.3 | nt | nt | nt | -6.8 | -1.0
COc1ccc(/C=C2\Sc3ccc(C(=O)NCc4cccnc4)cc3N(C)C2=O)cc1OC | 8 | -0.7 | 0.66 | nt | 6.5 | -0.2 | 0.7
O=C(N/N=C/c1c[nH]c2ccccc12)c1cc(Br)ccc1O | 1 | -2.4 | nt | 3% | nt | 1.9 | -1.6
COc1ccc(CCN(Cc2cc3ccc(C)cc3[nH]c2=O)C(C)=O)cc1OC | -9 | -0.1 | 0.74 | -12% | 3.1 | 3.8 | 0.5
O=C1CCN(Cc2ccccc2)CCN1CCO | 6 | 1.7 | 0.68 | 0% | 4.7 | 2.4 | 0.6
OCc1cccc[n+]1Cc1ccccc1 | 7 | -2.8 | 0.7 | nt | 0.5 | -2.2 | 1.8
C=CCOc1cccc(C(=O)N2CCCC(CNS(=O)(=O)c3cccs3)C2)c1 (stereo unspecified) | 2 | 4.4 | 0.64 | nt | 1.1 | -2.8 | -1.2
O=C(NCC1CCN(C(=O)c2ccc([N+](=O)[O-])cc2)CC1)c1ccc([N+](=O)[O-])cc1 | 0 | -1.5 | 0.7 | nt | 1.8 | 8.8 | -0.1
O=C(Cn1cnc2ccccc21)Nc1ccc(SC(F)F)cc1 | -22 | 2.4 | 0.55 | -4% | 1.6 | -8.8 | 1.4
Cc1oc(-c2ccc(-c3ccccc3)cc2)nc1CN(C)C1CCOC1 (stereo unspecified) | 6 | 4.3 | 0.66 | 5% | -0.3 | -5.4 | -3.1
O=C1c2ccsc2SCCN1Cc1cccc(Cl)c1 | -10 | -0.9 | 0.73 | -2% | 4.1 | -4.2 | -4.0
CC(=O)Nc1ccc(S(=O)(=O)N(CCCN2CCOCC2)Cc2cccs2)cc1 | 7 | -0.9 | 0.67 | nt | 3.7 | -1.1 | -0.7
[O-][n+]1onc2c1CCc1nnc(-c3ccccc3)cc1-2 | -5 | 0.8 | 0.73 | 1% | 1.2 | 1.7 | 0.7
COc1ccccc1C(=O)N(Cc1ccccc1)c1ccc(C)cc1 | 14 | 2.0 | 0.73 | nt | 2.5 | -9.9 | 0.3
CCCN(CC(=O)Nc1ccccc1C)C(=O)Cc1n[nH]c(=O)c2ccccc12 | -5 | 0.2 | 0.67 | nt | 2.6 | -0.8 | -1.0
CCOC(=O)Cn1c(=NC(=O)c2ccc([N+](=O)[O-])s2)sc2ccccc21 | 1 | 26 | 0.69 | 9% | -7.5 | 4.1 | 1.7
CCN(C(=O)COC(=O)c1ccc(C)c(S(=O)(=O)N2CCCCC2)c1)C1CCS(=O)(=O)C1 (stereo unspecified) | 1 | -1.5 | 0.69 | nt | -1.0 | -1.5 | 0.5
COc1ccc(-n2c(COc3cccc(C)c3)nnc2SCC(=O)O)cc1 | 3 | -1.0 | nt | nt | nt | -4.6 | 0.4
COc1cc2c(cc1/C=C1/NC(=O)N(c3ccccc3)C1=O)OCO2 | -1 | 8.1 | 0.72 | 10% | -8.9 | -0.9 | 0.6
O=C(CCN1C(=O)/C(=C/c2cccs2)SC1=S)Nc1ccccn1 | 7 | 33* | 0.71 | ? | 7.5 | 2.1 | -0.4
COc1cc2cnc(-c3ccccc3)c(C(=O)c3ccc(OCc4ccccc4)cc3)c2cc1OC | -3 | 6.6 | 0.73 | 6% | 1.3 | nt | nt
CC1(C)CC(=O)C(C2C3=C(CC(C)(C)CC3=O)Oc3ccc4ccccc4c32)C(=O)C1 (stereo unspecified) | 4 | -1.6 | 0.72 | 3% | 2.0 | -3.9 | -0.3
CC1CCc2c(sc(NC(=O)CSc3nc4c(c(C(F)(F)F)n3)CCc3ccccc3-4)c2C(N)=O)C1 (stereo unspecified) | -7 | -1.9 | 0.72 | ? | -1.1 | 3.3 | 0.6
O=C(O)c1nnsc1-c1csnn1 | -2 | 6.0 | nt | -8% | nt | nt | nt
NS(=O)(=O)c1ccc(NC(=O)CSc2nc3ccccc3[nH]2)cc1 | -7 | -4.6 | nt | -2% | nt | -1.4 | 0.9
Cc1ccc2nc(NS(C)(=O)=O)sc2c1 | 1 | -5.3 | 0.66 | 15% | -0.7 | -1.8 | -1.5
C[C@H]1CN([C@@H](C)CO)C(=O)c2cccc(NC(=O)C3CC3)c2O[C@H]1CN(C)CC1CCCCC1 | 4 | -2.8 | nt | nt | 1.3 | 8.3 | 0.5
NS(=O)(=O)c1ccc(NC(=O)c2ccc3c(c2)OCO3)cc1 | 0 | 2.1 | 0.69 | -3% | -0.6 | 0.0 | -0.1
O=c1c(C/C=C/c2ccccc2)c(O)ccn1Cc1ccc(Cl)cc1Cl | -4 | -1.2 | 0.64 | 7% | 0.9 | 0.3 | 0.1
Cc1ccccc1Nc1nc(N)nc(COC(=O)c2ccc(S(=O)(=O)N(C)C)cc2)n1 | -4 | 1.9 | 0.63 | 1% | 1.3 | 9.0 | 0.3
COc1cc(/C=C(/C(=O)c2cccs2)c2nc3ccccc3[nH]2)ccc1O | 2 | -2.4 | 0.72 | 8% | 4.4 | -0.3 | 0.6
COc1cccc(-c2nc(-c3ccc4c(c3)-c3ccccc3S4(=O)=O)c(-c3ccccc3)[nH]2)c1OC | -10 | 3.9 | 0.76 | 0% | -31 | 5.7 | -0.9
CCOc1ccc(S(=O)(=O)NCCCN2CCOCC2)cc1 | -1 | 1.3 | 0.65 | -5% | 0.8 | -2.5 | 0.9
